# Screens deposited in PubChem by ICCB-Longwood Screening Facility, Harvard Medical School.
# E coli growth: inhibitors of Escherichia coli growth; OD600 absorbance (test concentration not listed); AID 1053175; hit rate 0.21% among 330,000; OD600, 23 h; active compounds read low;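 active = OD600 absorbance below the run mean of sample wells minus 3.6 SD, in any replicate, cut at about 0.56 in these data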;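 note: stock transfer was 300 nL into about 60 µL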
# An asterisk follows results filed as active; & = joins results of further samples. Only part of the results is shown. The share of hits here may be higher or lower than overall.
structure | E coli growth
O=C1C=C(c2ccc(F)nc2)CC(c2ccc3c(c2)OCO3)C1 (stereo unspecified) | 0.675
CON=CC(c1ccc(Cl)nc1)S(=O)(=O)c1ccccc1 (stereo unspecified) | 0.668
O=C(O)c1ccc(NN=Cc2ccc3c(c2)OCO3)cc1 | 0.673
COc1cc(OC)c(OC)cc1C=NNC(=O)c1cnccn1 | 0.667
COc1cc(C=NNC(=O)c2cccnc2)ccc1OC(=O)c1cccc(Br)c1 | 0.72
O=S(=O)(N=C(c1ccccc1)N1CCCCC1)c1ccccc1 | 0.609
C=CCn1cc(C=NN2C(=O)C3C4C=CC(C4)C3C2=O)c2ccccc21 (stereo unspecified) | 0.668
O=C(Oc1cccc(C=NNc2nc(Nc3ccccc3)nc(N3CCOCC3)n2)c1)c1ccco1 | 0.724
Cc1cccc(CCN2C(Nc3ccccc3)=NCC2CC(C)C)c1 (stereo unspecified) | 0.68
COc1ccc(C(=O)Oc2ccc(C=NO)cc2)cc1 | 0.715
Cc1ccc(S(=O)(=O)NN=Cc2ccc(OCC(=O)Nc3ccccc3Cl)cc2)cc1 | 0.685
CN(Cc1c(C(=O)NN=Cc2ccc(F)cc2)nnn1-c1nonc1N)C1CCCCC1 | 0.715
CC(=NNc1nc(N2CCOCC2)nc(N2CCOCC2)n1)c1ccc([N+](=O)[O-])cc1 | 0.685
CCN(CC)C(=O)c1[nH]cnc1C(=O)NC(C)C(=O)OCc1ccccc1 (stereo unspecified) | 0.652
COC(=O)C1=C(C)N(Cc2ccccc2)C(=NCC(C)C)NC1c1cccc(C(F)(F)F)c1 (stereo unspecified) | 0.643

# Remaining list, next part
structure | E coli growth
O=C(NN=Cc1ccc([N+](=O)[O-])o1)c1cn(-c2ccccc2)nc1-c1ccc(Cl)cc1 | 0.684
O=C(NN=Cc1cc([N+](=O)[O-])ccc1O)C12CC3CC(CC(C3)C1)C2 | 0.671
CC(C)(O)c1ccccc1CCC(SCC1(CC(=O)O)CC1)c1cccc(C=Cc2ccc3ccc(Cl)cc3n2)c1 (stereo unspecified) | 0.674
O=C(/C=C\c1ccccc1)NCC(=O)NN=Cc1ccc(O)cc1O | 0.627
CC12CN3CCN(CC(C3)C1=NNC(=O)Nc1ccccc1)C2 | 0.644
CC(=O)CC1c2cc(C(F)(F)F)ccc2S(=O)(=O)N1C1CCCCC1 (stereo unspecified) | 0.666
C/C(C=NNC(=O)c1cc(-c2ccccc2)nc2ccccc12)=C\c1ccco1 | 0.749
O=C(NC(Cc1ccccc1)C(=O)O)c1c(F)c(F)c(F)c(F)c1F (stereo unspecified) | 0.718
O=C(NC(c1ccccc1)C(O)c1ccccc1)C1CCCN1C(=O)OCc1ccccc1 (stereo unspecified) | 0.635
Cn1c(=O)n(C)c2cc(C=Nn3cnnc3)ccc21 | 0.672
O=C(Oc1ccc(C=NNC(=O)c2ccccn2)cc1)c1cccc(Br)c1 | 0.691
COC(=O)C(=Nc1ccccc1)/C(C(=O)C(=O)N(C)c1ccccc1)=C(/O)c1ccc(Cl)cc1 | 0.652
O=S(=O)(NN=Cc1ccc2c(c1)OCO2)c1ccc(Br)cc1 | 0.677
COc1cccc(C(=O)Oc2ccc(C=NNC(=O)c3ccncc3)cc2OC)c1 | 0.652
C/C(C=NNC(=O)Cn1cnc2ccccc21)=C\c1ccccc1 | 0.64

# (further entries)
structure | E coli growth
O=C(NCc1ccccc1)C(=NO)c1ccccc1 | 0.7
Cc1ccc(C2C3C(=O)N(C)C(=O)C3[C@]3(C)C(=O)N(Cc4ccccn4)CC(=O)N23)o1 (stereo partly specified) | 0.694
CC(=NNC(=O)c1ccco1)c1cc2ccccc2o1 | 0.662
CN(C)c1ccc(C=NNC(=O)CCc2c[nH]c3ccccc23)cc1 | 0.741
CC(=NNC(=O)C1COc2ccccc2O1)c1ccc(N2CCOCC2)cc1 (stereo unspecified) | 0.715
CC(=NNc1nc(-c2ccccc2)cc(-c2ccc(F)cc2)n1)c1cccc(N)c1 | 0.711
CCOC1OC(C(=O)O)=CC(c2cn(C(C)=O)c3ccccc23)C1CCCO (stereo unspecified) | 0.702&0.718
CCOc1cc(C=NNc2ncnc(Cl)c2N)ccc1O | 0.682
COc1c(O)ccc(C=NNC(=O)c2ccc3c(c2)OCO3)c1[N+](=O)[O-] | 0.721
Cc1c(C=NNC(=O)c2cc(=O)[nH]c(=O)[nH]2)c2ccccn2c1C(=O)c1ccccc1 | 0.68
CCc1n[nH]c(=S)n1N=Cc1ccc(-c2ccc(Br)cc2)o1 | 0.666
NC(Cc1cccc2ccccc12)=NOC(=O)Cc1cccs1 | 0.684
CN(C)CCCON=C(c1ccccc1)c1ccncc1 | 0.611
CCCCCCCCCCCCN1C(CC(=O)OC)c2cc(F)cc(F)c2S1(=O)=O (stereo unspecified) | 0.679
COCc1cc(C)nc(OCC(=O)NN=Cc2ccc(OC)c(OC)c2)c1C#N | 0.658

# Next entries
structure | E coli growth
C=CCn1c(=C(C#N)c2nnc3n2CCCCC3)sc(=Cc2ccc(F)cc2)c1=O | 0.676
Nc1nnc(CC(=O)NN=Cc2cccc([N+](=O)[O-])c2)s1 | 0.759
Cc1c(O)ccc(C=NNc2ncccc2[N+](=O)[O-])c1O | 0.6
CC1CCC(=O)N(C(CC#N)Cc2ccccc2)CC1 (stereo unspecified) | 0.695
CCN1C(=O)C2C(c3ccc(-c4ccccc4)cc3)N[C@@](Cc3ccccc3)(C(=O)OC)C2C1=O (stereo partly specified) | 0.701
CCC1=C(OC(=O)N(CC)CC)N2C(=O)OC(=NCC3CC3)[C@]2(C)C2C1=CCC1C(=O)N(CC)C(=O)C12 (stereo partly specified) | 0.685
CC(=O)[C@@]1(O)CCC2C3CCC4=CC(=O)CC[C@]4(C)C3C(O)C[C@@]21C (stereo partly specified) | 0.681
CCc1ccc(C(=O)NN=Cc2cccc3ccccc23)nc1 | 0.69
CCC(C)C1CN=C(N)N1CCCc1cc(OC)c(OC)c(OC)c1 (stereo unspecified) | 0.69
C[C@@]12C(=O)N(c3ccc(F)cc3)C(=O)N1C1c3ccccc3OCC1C2c1ccccc1 (stereo partly specified) | 0.71
CNC(=O)COC(=O)C(Nc1ccc(S(=O)(=O)N2CCOCC2)cc1[N+](=O)[O-])C(C)C (stereo unspecified) | 0.711
O=C(CN1CCCCC1)NN=Cc1ccccc1Br | 0.684
Cc1ccc(OCC(=O)NN=Cc2ccc([N+](=O)[O-])o2)cc1 | 0.55
Cc1oc(C=NNC(=O)CN(c2ccccc2Cl)S(C)(=O)=O)cc1Br | 0.71
Cc1ccc(S(=O)(=O)N2C(c3ccc(C(C)C)cc3)CC=C(C(=O)O)C2c2ccccc2)cc1 (stereo unspecified) | 0.687

# Next section.
structure | E coli growth
Oc1ccc2oc3c(c2c1C=Nn1cnnc1)CCCC3 | 0.732
CC(C)(C)OC(=O)NC(Cc1ccccc1)C(=O)NC(CO)C(O)C1CC1C(=O)N1CCCC1 (stereo unspecified) | 0.663
CCOC(=O)C1C2COc3ccc(Br)cc3C2N2C(=O)N(c3cccc(F)c3)C(=O)[C@@]12C (stereo partly specified) | 0.708
CC1(C)CC(=O)C(C=Nc2ncccc2C(=O)O)=C(O)C1 | 0.723
CC(Cc1ccccc1)=NNC(=O)CNC(=O)c1ccc(Cl)cc1 | 0.689
CC(=NNC(=O)Cn1c(C)nc2ccccc21)c1cccs1 | 0.679
COc1ccc(C(C)=NNC(=O)CNC(=O)Cc2ccccc2)c(OC)c1 | 0.6
CCCn1c(=C(C#N)C#N)sc(=C2C=Cc3ccccc3N2CC)c1=O | 0.768
CCCC(=NNC(=O)c1ccccc1C)c1ccccc1 | 0.705
O=S(=O)(N=Cc1c(O)ccc2ccccc12)c1cccs1 | 0.659
Cc1c(C(=O)NN=Cc2ccc(-c3ccccc3[N+](=O)[O-])o2)sc(N)c1C#N | 0.729
C[C@]12CCC(=O)C=C1CCC1C2C(=O)C[C@@]2(C)C1CC[C@]2(O)C(=O)CO (stereo partly specified) | 0.648
CCN(CC)C(=O)C(=O)NN=Cc1ccc(Cl)cc1Cl | 0.688
O=C(NN=Cc1ccco1)C1(O)c2ccccc2-c2ccccc21 | 0.641
COC(=O)NN=C(C)/C=C/c1ccccc1 | 0.726

# 6 entries drawn at random from those above, as already listed:
structure | E coli growth
O=C(NN=Cc1ccco1)C1(O)c2ccccc2-c2ccccc21 | 0.641
CC1(C)CC(=O)C(C=Nc2ncccc2C(=O)O)=C(O)C1 | 0.723
CC(Cc1ccccc1)=NNC(=O)CNC(=O)c1ccc(Cl)cc1 | 0.689
C[C@]12CCC(=O)C=C1CCC1C2C(=O)C[C@@]2(C)C1CC[C@]2(O)C(=O)CO (stereo partly specified) | 0.648
O=S(=O)(N=Cc1c(O)ccc2ccccc12)c1cccs1 | 0.659
Oc1ccc2oc3c(c2c1C=Nn1cnnc1)CCCC3 | 0.732

# Further structures follow:
structure | E coli growth
O=C(NN=Cc1ccccc1)c1ccc2c(c1)OCO2 | 0.622
Cc1ccc(-c2cc(C(=O)NN=Cc3c(C)nn(-c4ccccc4)c3C)n[nH]2)s1 | 0.68
COC(=O)c1ccc(C=NNC(=O)CCSc2nc3ccccc3s2)cc1 | 0.735
CC1=NNC(=O)C1CCC(=O)NN=Cc1ccc(Cl)c(Cl)c1 (stereo unspecified) | 0.672
COC(=O)C1=C(C)N(Cc2ccccc2)C(=NCC2CC2)NC1c1ccccc1 (stereo unspecified) | 0.643
Cc1cc(C=Nn2cnnc2)c(C)n1-c1ccc2c(c1)OCO2 | 0.694
O=C(NN=Cc1cccnc1)c1cccc(S(=O)(=O)Nc2cccc(Cl)c2)c1 | 0.707
Cc1c(C=NNC(=O)c2cccnc2)cc(C#N)n1C | 0.679
C=CCn1c(COc2ccc(Cl)cc2)nnc1SCC(=O)NN=Cc1ccccc1 | 0.715
CC(=NNS(=O)(=O)c1ccc(C)cc1)c1c(O)c2ccccc2oc1=O | 0.692
COc1cc2ccccc2cc1C(=O)NN=Cc1cccnc1 | 0.693
Cc1cccc(OCC(=O)NCC(=O)NN=Cc2ccc(O)cc2O)c1 | 0.677
O=C1OCCN1C(=O)C1C(c2ccc(F)cc2)C(c2ccc(F)cc2)=NN1c1ccc(Br)cc1 (stereo unspecified) | 0.702
CCN1C(=O)C(=Cc2cc(C)n(C)c2C)SC1=Nc1ccc(OC)cc1 | 0.732
CC(=NNC(=O)c1ccc(O)cc1)c1ccc2c(c1)OCCO2 | 0.626

# Additional structures follow.
structure | E coli growth
CCOc1ccc(C=NNC(=O)c2cccc3ccccc23)c(OCC)c1 | 0.65
COc1ccccc1OCC(=O)NN=Cc1cccc2cccnc12 | 0.678
Cn1c(=O)[nH]c(=O)c2c1nc(N1CCCCC1)n2CC=NNC(=O)c1cc(Br)ccc1O | 0.681
CC1CN(C(C)CO)C(=O)Cc2cc(NC(=O)Nc3ccc(C(F)(F)F)cc3)ccc2OC1CN(C)S(=O)(=O)c1cn(C)cn1 (stereo unspecified) | 0.695
COC(=O)c1ccc(C23CC4(C2)C(CN(Cc2ccc(-c5ccccc5)cc2)C4c2ccccc2)C3c2ccc(Cl)nc2)cc1 (stereo unspecified) | 0.698
CC(=NNC(=O)c1nc2ccccn2c1C)c1ccco1 | 0.626
C=C(Br)CN1C(Cc2ccccc2)C(O)[C@@]23C=CC(CC2S1(=O)=O)O3 (stereo partly specified) | 0.725
Nc1nonc1-n1nnc(C(=O)NN=Cc2ccc(Cl)cc2)c1-c1ccc2c(c1)OCO2 | 0.682
CCCCOc1ccc(C=NNC(=O)c2csc(C)c2C)cc1 | 0.752
CC(=NOCc1nc2ccccc2c(=O)n1N=Cc1cc(C)cc([N+](=O)[O-])c1O)c1ccccc1 | 0.682
Cc1ccc(C=NN2CCCCC2)o1 | 0.639
Fc1ccccc1COc1cccc(C=Nn2cnnc2)c1 | 0.738
O=C1CS/C(=N/N=Cc2c[nH]c3ccccc23)N1 | 0.698
CSCCC(NC(=O)Nc1cccc(C(F)(F)F)c1)C(=O)O (stereo unspecified) | 0.681
CCOC(=O)CC1c2cc(C(F)(F)F)ccc2S(=O)(=O)N1C(C)C (stereo unspecified) | 0.655

# Another view of some results above.
> Cn1c(=O)[nH]c(=O)c2c1nc(N1CCCCC1)n2CC=NNC(=O)c1cc(Br)ccc1O
  E coli growth: 0.681

> COC(=O)c1ccc(C23CC4(C2)C(CN(Cc2ccc(-c5ccccc5)cc2)C4c2ccccc2)C3c2ccc(Cl)nc2)cc1 (stereo unspecified)
  E coli growth: 0.698

> O=C1CS/C(=N/N=Cc2c[nH]c3ccccc23)N1
  E coli growth: 0.698

# Later entries.
structure | E coli growth
Cc1cc(C=NNC(=O)c2cc3ccccc3o2)c(C)n1C | 0.708
Cc1ccsc1C=NNc1nc(=O)[nH]nc1C | 0.655
Nc1nonc1-n1nnc(C(=O)NN=Cc2cccnc2)c1-c1cccs1 | 0.665
CCCCCCOc1ccc(C(C)=NNC2=NCCN2)cc1 | 0.547
Cn1c(=O)[nH]c(=O)c2c1nc(N1CCCCC1)n2CC=NNc1ccc(C(=O)O)cc1 | 0.712
COc1ccc(C=NNC(=O)c2cnccn2)cc1O | 0.705
COc1cc(C=NNC(=O)c2ccccc2)ccc1O | 0.651
O=S1(=O)CCOCC(CC2CCCCC2)N1Cc1cccc(C(F)(F)F)c1 (stereo unspecified) | 0.699
NC(=S)NN=Cc1ccccc1OCCSc1ccc(Cl)cc1 | 0.763
CC(CCc1oc2ccccc2c1-c1ccc(C)o1)=NO | 0.73
CC(=NNC(=O)c1cc(C)nc2ccccc12)c1cccc(Cl)c1 | 0.711
COc1cc(C=NNC(=S)Nc2cccc(C(=O)O)c2)ccc1O | 0.724
Cn1c(SCC(=O)NN=Cc2cc([N+](=O)[O-])ccc2O)nnc1-c1ccccc1 | 0.627
CCOC(=O)C1=c2sc(=Cc3cccnc3)c(=O)n2C(N)=C(C(=O)OC)C1c1cccnc1 (stereo unspecified) | 0.724
Cc1ccc(S(=O)(=O)N(C)Cc2ccc(C(=O)NN=C3CC(=O)CC(C)(C)C3)cc2)cc1 | 0.715
CC(C)(C)C1COC(=O)C(Cc2ccc(F)cc2)CC=CCC(CC(=O)NCCO)C(=O)N1 (stereo unspecified) | 0.705
